Source: PubChem (several laboratories)
PKD1 inh = inhibitors of human PKD1 kinase, biochemical, fluorescence polarization. 200,000 tested, 0.056% active. AID 797, 2007. inhibition, %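 (about 10 µM by stock and volumes)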. PKD1 kinase fluorescence polarization assay;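 active means inhibition of 50% or more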;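 further: controls were vehicle for no effect and a reference inhibitor for full effect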
Target sequence (Q15139 whole entry, looked up): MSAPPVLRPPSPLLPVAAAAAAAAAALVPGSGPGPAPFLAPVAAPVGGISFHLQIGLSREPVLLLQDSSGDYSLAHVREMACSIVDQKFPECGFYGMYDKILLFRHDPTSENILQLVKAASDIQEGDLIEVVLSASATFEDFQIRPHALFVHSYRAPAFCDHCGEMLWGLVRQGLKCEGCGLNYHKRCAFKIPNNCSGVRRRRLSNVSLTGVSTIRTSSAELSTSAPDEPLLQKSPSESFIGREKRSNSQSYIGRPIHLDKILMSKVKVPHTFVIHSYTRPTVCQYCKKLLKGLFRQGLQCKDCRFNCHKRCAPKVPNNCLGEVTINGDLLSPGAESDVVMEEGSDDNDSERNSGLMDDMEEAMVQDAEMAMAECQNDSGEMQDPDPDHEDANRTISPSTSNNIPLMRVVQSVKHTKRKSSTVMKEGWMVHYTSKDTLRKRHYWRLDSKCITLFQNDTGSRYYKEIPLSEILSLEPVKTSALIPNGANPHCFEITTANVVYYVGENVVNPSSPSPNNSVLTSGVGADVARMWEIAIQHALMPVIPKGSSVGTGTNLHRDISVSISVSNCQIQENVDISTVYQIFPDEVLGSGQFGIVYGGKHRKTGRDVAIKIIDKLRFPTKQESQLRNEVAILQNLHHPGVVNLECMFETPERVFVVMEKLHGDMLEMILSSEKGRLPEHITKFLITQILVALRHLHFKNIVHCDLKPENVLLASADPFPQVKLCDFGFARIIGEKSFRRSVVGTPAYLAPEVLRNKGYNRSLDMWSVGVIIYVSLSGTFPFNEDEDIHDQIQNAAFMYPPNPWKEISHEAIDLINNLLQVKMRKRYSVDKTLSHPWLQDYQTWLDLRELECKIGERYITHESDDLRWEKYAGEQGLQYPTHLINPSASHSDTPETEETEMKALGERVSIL
RGS16-Gao = modulators of RGS16 binding to Galphao, primary screen, biochemical, human proteins, multiplexed bead flow cytometry. binding response (% of control), % at 10 µM. AID 1441, 2008. Regulator of G-protein signaling 16 (Homo sapiens) + Guanine nucleotide-binding protein …. 220,000 tested, 0.38% active. bead-based flow cytometry RGS16-Galphao binding, fluorescence; actives lie on both sides;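 active means below 25% or above 175%, edge rows of some plates excepted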;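 further: Galphao activated by GDP with aluminum fluoride before binding; 100% = wells without compound and 0% = beads without RGS; some results beyond the cut were filed as inactive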
INS promoter inh = inhibitors of insulin promoter-driven GFP, primary screen, imaging, TRM-6 cells (human fetal islet line), eGFP reporter, cell count. 130,000 tested, 0.9% active. reporter expression induced with tamoxifen. inhibition, % at 2 µM;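 active means inhibition above the mean plus 3 SD, with well images judged a real hit on visual review, cut at about 60% in these data, passing the limit was not always enough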
GALR2 ag = GALR2 receptor agonists, primary screen, cell-based; 140,000 tested, 0.48% active; Galanin receptor type 2 (Homo sapiens), O43603; GALR2-expressing cells, agonist activation read-out; activation, %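 (tested at 5 µM)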;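 active means above mean plus 3 SD of all compounds, about 5% in these data, not always enough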;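 further: 0% = vehicle buffer wells and 100% = reference agonist at full effect; tested in CHO reporter cells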
HSV replic up = enhancers of HSV replication in host cells, fold increase, host cell viability. 220,000 tested, 0.005% active. maximum fold increase. HSV replication augmentation in cells;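 active means peak rise of 1.5-fold or more in the series; tested in PC3 cells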;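 further: first round at 10 µM; read as green reporter fluorescence; hits show the peak of a series up to 25 µM; 1 = signal of infected wells without compound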
INS promoter inh cell count = further read-out of INS promoter inh, marked with its call; normalized cell count, %; measured here: cell count, toxicity; reference of the scale not given here;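 cells exposed to compound for 48 h; stained nuclei by imaging scaled within each plate; lower means fewer cells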
HSV replic up primary fold = recorded beside HSV replic up, whose call it bears; fold increase; compound at 10 µM; measured here: primary screen fold increase 10 uM; tested in PC3 cells;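 GFP signal in the first replicate; 1 = infected wells without compound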
Starred values were filed as active, the others as inactive; i = inactive; / = not tested or not shown.

No.	Compound	PKD1 inh	RGS16-Gao	INS promoter inh	INS promoter inh cell count	GALR2 ag	HSV replic up	HSV replic up primary fold
1	COc1ccc(S(=O)(=O)Nc2ccc(S(=O)(=O)Nc3nc(C)cc(C)n3)cc2)cc1OC	-7	100	31	95	-1.0	i	0.47
2	C/C=C/c1ccc(OCCCNCC(C)O)c(OC)c1 (centres undefined)	9	96	-48	121	-0.2	i	0.94
3	COc1ccc(NC(=O)CC2SC(N)=NC2=O)c([N+](=O)[O-])c1 (centres undefined)	-9	112	/	/	/	i	1
4	CCCCC(=O)Nc1nnc(C)s1	4	102	-80	84	-1.4	i	1
5	COc1ccc(CCNS(=O)(=O)c2cn(C)c(=O)n(C)c2=O)cc1OC	0	100	/	/	-3.3	i	0.95
6	Cc1ccsc1C(=O)OCC(=O)NCc1ccco1	-4	103	/	/	/	i	0.91
7	COc1cc2c(cc1OC)-c1cc(NC3CCCC3)nc(=O)n1CC2	-3	102	-29	61	-0.3	i	0.74
8	CC(=O)NCC(=O)N(Cc1ccco1)C1(C(=O)NC2CCCCC2)CCCCC1	-5	95	-52	126	-0.8	i	0.93
9	COCc1n[nH]c(=S)n1-c1cccc2ccccc12	-9	94	43	154	-2.5	i	0.79
10	Cc1nc(-c2cccnc2)sc1C(=O)N/N=C/c1ccccc1Cl	/	101	/	/	/	i	0.97
11	COCc1cc(C)nc(SCC(=O)Nc2ccc3c(c2)OCO3)c1C#N	-1	105	-19	146	-0.4	i	0.79
12	Cc1ccccc1Nc1nc(-c2sc(NC(=O)c3ccco3)nc2C)cs1	-9	69	-32	64	-0.7	i	0.84
13	C/C=C(\C)C(=O)N1CC2(CC(c3cccc(NC(=O)COc4ccc(Cl)cc4)c3)=NO2)C[C@@H]1C(N)=O (some centres undefined)	/	101	/	/	/	i	0.88
14	CC(=O)c1ccc(NC(=O)COC(=O)c2c3c(nc4ccccc24)/C(=C\c2cccs2)CCC3)cc1	-5	108	17	138	3.8	i	0.58
15	O=C(COC(=O)CCCNC(=O)c1ccc(Cl)cc1)Nc1cc(Cl)ccc1Cl	-9	99	/	/	-0.7	i	0.91
16	Cc1ccc(C(=O)O/N=C\c2ccc(N3CCCCC3)c([N+](=O)[O-])c2)cc1	6	79	24	170	-0.6	i	1
17	CCC(C(=O)Nc1ccc(OC)c(Cl)c1)c1ccccc1 (centres undefined)	-6	147	8	82	-1.9	i	0.94
18	Cc1nn2c(-c3ccccn3)ccnc2c1Cl	2	100	/	/	/	i	1
19	CC(=O)/C=C(\C)Nc1ccccc1O	/	129	/	/	/	i	0.93
20	Cc1cccc(-c2cc3nc(C)cc(NCCCN(C)C)n3n2)c1	-6	100	-43	23	-0.1	i	0.85
21	Clc1cc(Cl)c2nc(N3CCOCC3)sc2c1	-4	110	20	109	-1.5	i	0.92
22	COC(=O)c1cc(COC(=O)c2ccc(OC)c(S(=O)(=O)N3CCCC3)c2)oc1C	-13	104	-29	79	0.4	i	0.95
23	CCc1ccc(-c2ccc(SCC(=O)Nc3nnc(C)s3)nn2)cc1	8	100	26	85	/	i	1.1
24	O=C(OCn1nnc2ccccc2c1=O)c1cc(-c2ccccc2Cl)nc2ccccc12	-3	103	/	/	-1.8	i	1.3
25	COc1ccc(/C=N/NC(=O)c2nonc2N)cc1OC	/	104	/	/	/	i	0.97

Random excerpt: 4 records from the list, in no set order.
No.	Compound	PKD1 inh	RGS16-Gao	INS promoter inh	INS promoter inh cell count	GALR2 ag	HSV replic up	HSV replic up primary fold
18	Cc1nn2c(-c3ccccn3)ccnc2c1Cl	2	100	/	/	/	i	1
13	C/C=C(\C)C(=O)N1CC2(CC(c3cccc(NC(=O)COc4ccc(Cl)cc4)c3)=NO2)C[C@@H]1C(N)=O (some centres undefined)	/	101	/	/	/	i	0.88
11	COCc1cc(C)nc(SCC(=O)Nc2ccc3c(c2)OCO3)c1C#N	-1	105	-19	146	-0.4	i	0.79
22	COC(=O)c1cc(COC(=O)c2ccc(OC)c(S(=O)(=O)N3CCCC3)c2)oc1C	-13	104	-29	79	0.4	i	0.95

(further entries)
No.	Compound	PKD1 inh	RGS16-Gao	INS promoter inh	INS promoter inh cell count	GALR2 ag	HSV replic up	HSV replic up primary fold
26	CCOc1ccc(NC(=O)CN(C)CC(=O)Nc2cccc(Cl)c2C)cc1OCC	-1	102	16	161	0.1	i	0.89
27	CCCOCC(O)COc1ccccc1C(=O)N1CCOCC1 (centres undefined)	-8	102	-24	101	-1.3	i	0.96
28	COc1ccc(-c2ccc(SCC(=O)N3CCOCC3)nn2)cc1OC	7	/	/	/	0.9	i	0.75
29	Cc1cnc(CNC(=O)c2ccc(OC3CCN(C(=O)C4CC4)CC3)cc2)cn1	-1	98	/	/	/	i	1.1
30	N#Cc1cc(S(=O)(=O)c2ccc(F)cc2)c(N)[nH]c1=O	-2	98	/	/	/	i	1.5
31	COc1cc(CN2CCCC(CO)(Cc3cccc(Cl)c3)C2)cc2c1OCO2 (centres undefined)	0	84	/	/	/	i	0.93
32	CC(=O)Nc1nnc(Cc2c[nH]c3ccccc23)s1	-10	103	40	83	/	i	0.84
33	COc1ccc2cc(CO)c(Cl)nc2c1	-2	100	/	/	/	i	0.83
34	COc1ccc(NC(=O)C(CC(=O)O)C(C)c2ccccc2)cc1 (centres undefined)	-5	99	/	/	/	i	1
35	CN1C(C(=O)NCC2CC2)CC2Cn3c(nc4cc5ccccc5cc43)C21 (centres undefined)	/	96	/	/	/	i	0.99
36	CCC(OC(=O)c1cccs1)C(=O)NC1CCCCC1 (centres undefined)	-7	103	-6	121	-1.2	i	0.89
37	COc1cc(OC)cc(-c2nc(N)n[nH]2)c1	-3	93	-189	50	-2.7	i	0.92
38	CN1C(=O)CC(N2CCN(c3ncccn3)CC2)C1=O (centres undefined)	2	101	41	105	-0.8	i	0.77
39	O=C(CC(c1ccccc1)c1cc(Cl)ccc1O)N1CCCC1 (centres undefined)	/	106	/	/	/	i	1
40	CC(=O)c1ccc(OCc2ncc(C(F)(F)F)cc2Cl)cc1	/	103	/	/	/	i	1
41	Cc1ccc(Cc2ccc(C(=O)NNC(N)=S)o2)cc1	-14	105	/	/	/	i	0.93
42	NS(=O)(=O)c1ccc(NC(=S)NCc2ccco2)cc1	3	84	/	/	/	i	1.1
43	COc1ccc(NC(=S)N2CCCC2)cc1OC	-6	100	-37	144	/	i	1.1
44	COc1ccccc1-c1ccc(Nc2cccc(C(C)=O)c2)nn1	5	102	40	74	-1.2	i	0.88
45	Cc1onc(-c2ccccc2Cl)c1C(=O)Nc1ccc(-n2nncc2-c2ccco2)cc1	-14	93	-10	96	-0.6	i	1.3
46	CCOC(=O)c1sc2nc(CSCC(=O)OCc3ccc(C(=O)OC)o3)[nH]c(=O)c2c1C	1	103	42	96	-0.7	i	0.77
47	Cc1ccc(/C=N/NC(=O)c2cccs2)s1	-4	81	-43	99	0.1	i	0.91
48	COc1ccccc1NC(=O)c1sc(NC(=O)c2ccco2)c(C#N)c1C	-4	106	93*	111*	-1.3	i	0.93
49	Cc1cc(NC(=O)Cn2nc(C(F)(F)F)c3c2CCC3)no1	-3	110	52	152	-0.4	i	0.93
50	O=C(/C=C\Nc1cccc(F)c1)c1cccs1	-7	101	19	120	-1.1	i	0.97

Ordered by length of the SMILES (high to low): 3 of the compounds above
No.	Compound	PKD1 inh	RGS16-Gao	INS promoter inh	INS promoter inh cell count	GALR2 ag	HSV replic up	HSV replic up primary fold
42	NS(=O)(=O)c1ccc(NC(=S)NCc2ccco2)cc1	3	84	/	/	/	i	1.1
41	Cc1ccc(Cc2ccc(C(=O)NNC(N)=S)o2)cc1	-14	105	/	/	/	i	0.93
27	CCCOCC(O)COc1ccccc1C(=O)N1CCOCC1 (centres undefined)	-8	102	-24	101	-1.3	i	0.96

(cont.)
No.	Compound	PKD1 inh	RGS16-Gao	INS promoter inh	INS promoter inh cell count	GALR2 ag	HSV replic up	HSV replic up primary fold
51	CN(C1CCCCC1)S(=O)(=O)c1ccc(NC(=O)C2CCCCC2C(=O)O)cc1 (centres undefined)	5	101	12	105	0.1	i	1
52	O=C(N/N=C/c1ccc(O)cc1)c1csc2ccccc12	-10	93	/	/	-1.8	i	0.76
53	C=CCc1cccc(/C=N/NC(=O)c2ccccc2Br)c1O	4	23*	/	/	/	i	0.84
54	CCOC(=O)c1cnc(-n2nc(C)cc2C)nc1NC1CCCCC1	-4	100	36	79	0.1	i	0.77
55	C=CCNC(=O)Cc1c(OC)ccc2cc(Br)ccc12	-7	102	/	/	/	i	1.1
56	CN1c2ccccc2N(C)C1(C)c1cccc2ccccc12	-13	97	-63	113	-0.8	i	1.1
57	Cc1ccc2c(c1)C(=C(C#N)C#N)C(=O)N2CCN1CCOCC1	/	97	/	/	/	i	0.96
58	Cn1c(=O)c([N+](=O)[O-])c(NCc2ccccc2Cl)c2ccccc21	/	100	/	/	/	i	1
59	O=C(Nc1ccc(S(=O)(=O)C(F)F)cc1)c1cccc(S(=O)(=O)N2CCOCC2)c1	4	98	22	108	-0.3	i	0.99
60	COc1ccc(Cn2c(SCc3ccccc3C)nc3cc(OC)c(OC)cc3c2=N)cc1	4	102	/	/	9.1*	i	0.54
61	FC(F)(F)c1cccc(-c2nnc(-c3ccccc3)c(N3CCOCC3)n2)c1	-1	104	-233	90	-0.5	i	0.93
62	CN(C)c1ccc(C(=O)Nc2ccc(CN3CCS(=O)(=O)CC3)cc2)cc1	/	99	/	/	/	i	1
63	Cc1ccccc1OCCCn1c(CO)nc2ccccc21	6	115	-57	91	/	i	0.93
64	Cc1cccc(NC(=S)NNC(=O)c2ccccc2OC(F)F)c1	0	146	7	113	-1.1	/	/
65	CCC1CCCCN1S(=O)(=O)c1ccc(S(=O)(=O)N(Cc2ccccn2)CC2CCCO2)cc1 (centres undefined)	1	112	16	118	0.1	i	0.9
66	CC(C)(C(=O)c1ccccc1)/[N+]([O-])=C/c1ccccc1F	-6	/	-7	153	-1.9	i	1.4
67	COc1ccc(CCNC(=O)c2ccncc2)cc1OC	-9	75	-33	107	-0.1	i	0.9
68	O=C(NC(=O)c1cccc(Cl)c1)OC[C@@H]1CCCN2CCCCC12 (some centres undefined)	-6	104	/	/	-2.8	i	0.95
69	CCc1nnc(NC(=O)C2COc3ccccc3O2)s1 (centres undefined)	-11	103	5	130	-2.7	i	0.88
70	Cc1noc(C)c1COC(=O)COc1ccc(C#N)cc1	-8	106	/	/	/	i	1.1
71	COc1ccc(C(CNC(=O)c2oc3ccc(Br)cc3c2C)N2CCCCC2)cc1 (centres undefined)	2	100	-36	157	/	i	0.91
72	Cc1ccn(-c2n[nH]c(C)c2[N+](=O)[O-])n1	-2	99	5	92	/	i	1.1
73	CCOC(=O)C1(CCCc2ccccc2)CCN(C(=O)CN2C(=O)CSC2=O)CC1	-1	101	/	/	/	i	0.86
74	CCN1C(=O)C(CC(=O)Nc2c(C)cccc2C)Nc2cc(S(=O)(=O)N(C)C)ccc21 (centres undefined)	-2	101	/	/	/	i	1
75	COC(=O)c1cccc(NC(=O)c2ccc(S(=O)(=O)N3CCN(C)CC3)cc2)c1	3	107	33	105	-1.9	i	0.81
76	COc1ccccc1/C=C/C=N/N1CCN(Cc2ccccc2)CC1	7	95	-27	105	-1.6	i	0.94
77	O=C(NCc1cn2ccccc2n1)c1ccco1	-5	107	/	/	-1.9	i	0.96
78	COc1cc(/C=C(/C#N)c2nc3ccccc3[nH]2)ccc1OCc1ccc(C(=O)O)o1	-16	99	/	/	-0.6	i	1
79	O=C(CSc1nnc2ccccn12)c1ccc2c(c1)OCCO2	-4	101	57	113	-1.9	i	0.96
80	Cc1ccc(NC(=O)N2CCC(c3nc4c(nnn4Cc4cccc(Cl)c4)c(=O)[nH]3)CC2)cc1	7	92	58	49	-2.2	i	0.8
81	CC(C)C(NS(=O)(=O)c1cccc2nsnc12)C(=O)N1CCn2c1nc1ccccc12 (centres undefined)	1	101	/	/	-1.6	i	0.94
82	Cc1ccc(C2=CSC3=NNC4(CCCCC4)NN23)cc1	-5	132	8	47	/	i	0.98
83	O=C(Oc1ccc(NC(=O)c2cc3c(cc2Br)OCO3)cc1)c1ccccc1	/	112	/	/	/	i	0.84
84	O=C(CC1Sc2ccccc2NC1=O)NNC(=O)Nc1ccc(Cl)cc1 (centres undefined)	/	100	/	/	/	i	0.97
85	COC(=O)CC1=C(C(=O)OC)C(c2cccc(OCC(N)=O)c2)C(C#N)=C(N)O1 (centres undefined)	-9	97	-46	79	0.6	i	0.89
86	NS(=O)(=O)c1ccc(NC(=S)N2CCN(c3ccccc3)CC2)cc1	-10	20	13	106	-1.8	i	1.1
87	Cn1cc(SCC(=O)Nc2nc3ccccc3s2)c2ccccc21	-6	98	56	104	-2.0	i	0.92
88	CC1CCC(=NNC(=O)Cc2ccccc2)CC1 (centres undefined)	-4	100	-26	165	-1.9	/	/

This is a random part of the collection (roughly 1.3% active in at least one column).
